# Screens (PubChem)
# Beta apoptosis: blocks beta cell apoptosis | hit rate 0.8% among 300,000 | protection from apoptosis, % (concentration not given with the values) | INS-1E cytokine-induced death, ATP luminescence, 48 h; percent of positive-control rescue, neutral wells zero;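 active means all replicates at 75% or more, or half of them and the mean; inconclusive means half reach 75% but not the mean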;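 further: 0% = cytokine-treated negative control wells and 100% = positive control rescue; higher means more ATP so stronger rescue from cytokine killing; wells of about 40 µL received 100 nL stock; the first replicate is given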
# RanGTP-Imp inh: disruptors of Ran-importin-beta complex formation – biochemical, FRET, CFP-Ran, YFP-importin-beta, homogeneous, primary screen. cell-free CFP-Ran/YFP-importin-beta FRET ratio. inhibition, % (no concentration beside the values). hit rate 1.1% among 300,000. AID 2216;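 active means most replicates above 15%; inconclusive means exactly half above 15%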;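 further: 0% = DMSO wells and 100% = Ran loaded with GDP instead of GTP; wells of about 40 µL received 100 nL stock; the first replicate is given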
# Calb FLC: C. albicans growth modulation with fluconazole. AID 1979. hit rate 0.57% among 300,000. C. albicans CaCi-2 (fluconazole-resistant clinical isolate) + fluconazole, Alamar Blue growth, 48 h. growth inhibition, % (test concentration not listed);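 active means most replicates above 75%; inconclusive means exactly half above 75%; inactive means most below 75%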;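 further: all wells also contain fluconazole at 8 µg/ml as a sub-toxic cotreatment; 0% = median of DMSO wells and 100% = median of geldanamycin control wells; wells of about 8 µL received 7.5 nL stock; the first replicate is given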
# MLL AF4-AF9 inh: blocks AF4 peptide binding to human AF9; AlphaScreen, biotin-AF4 peptide binding to FLAG-AF9; inhibition, % at 10 µM; hit rate 0.47% among 350,000; AID 651704;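 active means every replicate reaching a set inhibition limit, whatever the replicate mean, cut at about 25% in these data; inconclusive means mean inhibition reaches that limit but some replicates miss it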;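 further: 0% = plate neutral control median and 100% = total signal loss; the record names both 10 and 1 µM as test concentration; the first replicate is given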
# Target sequence (P42568 whole entry, looked up): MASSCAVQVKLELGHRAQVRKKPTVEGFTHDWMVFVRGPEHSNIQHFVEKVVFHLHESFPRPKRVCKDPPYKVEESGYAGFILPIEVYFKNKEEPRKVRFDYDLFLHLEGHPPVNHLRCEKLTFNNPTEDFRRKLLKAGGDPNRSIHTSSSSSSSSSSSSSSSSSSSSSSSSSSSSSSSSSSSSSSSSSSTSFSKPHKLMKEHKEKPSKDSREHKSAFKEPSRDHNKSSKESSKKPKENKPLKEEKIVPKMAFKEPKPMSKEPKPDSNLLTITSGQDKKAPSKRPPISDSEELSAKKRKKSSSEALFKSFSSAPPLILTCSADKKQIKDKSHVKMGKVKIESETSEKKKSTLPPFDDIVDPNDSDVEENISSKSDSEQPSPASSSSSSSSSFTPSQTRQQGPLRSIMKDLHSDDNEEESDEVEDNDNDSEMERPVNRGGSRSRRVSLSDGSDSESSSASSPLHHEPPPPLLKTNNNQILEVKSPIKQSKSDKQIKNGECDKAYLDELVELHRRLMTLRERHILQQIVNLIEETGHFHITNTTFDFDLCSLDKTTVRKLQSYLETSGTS
# T cruzi inh: blocks replication of Trypanosoma cruzi; T. cruzi beta-gal in NIH3T3, luminescence, 90 h; inhibition, % (concentration not given with the values); AID 1885; hit rate 1.4% among 300,000;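 active means mean inhibition across valid replicates above about 55%, limit read from the data; inconclusive means mean below that limit but half or more replicates reach it; inactive means mean below it, under half of replicates reach it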;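 further: signal also drops with host cell toxicity which is not excluded here; 0% = plate median of DMSO wells and 100% = zero luminescence signal; higher percent means less beta-gal luminescence so fewer parasites; stock transfer was 50 nL into about 50 µL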
# Ecoli rRNA inh: selective bacterial rRNA inhibition in E. coli; E. coli WT GFP vs humanized-ribosome RFP mutants, fluorescence, 24 h; stronger effect = lower value; DMSO median 0, no signal -100; GFP signal change (wild-type ribosome), % (no concentration beside the values); hit rate 1.6% among 350,000; AID 720706;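 active means significant combined selectivity score with lowered wild-type GFP, culture density cut under 30%, mutant RFP and density less affected; inactive means any of these conditions unmet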; further: one replicate is shown; some compounds called inactive have numbers as strong as hits
# ALR H2O2 inh: human ALR oxidase inhibition via reduced H2O2; P55789; purified ALR, DTT oxidation, H2O2 HRP-luminol luminescence; AID 485317; inhibition, % (test concentration not listed); hit rate 3.8% among 290,000;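 active means mean and each replicate at 75% or more; inconclusive means only one of the two met; inactive means neither met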;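 further: stock transfer was 7.5 nL into about 7.5 µL; 0% = neutral wells and 100% = wells with inactivated enzyme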
# Target sequence (P55789 whole entry, looked up): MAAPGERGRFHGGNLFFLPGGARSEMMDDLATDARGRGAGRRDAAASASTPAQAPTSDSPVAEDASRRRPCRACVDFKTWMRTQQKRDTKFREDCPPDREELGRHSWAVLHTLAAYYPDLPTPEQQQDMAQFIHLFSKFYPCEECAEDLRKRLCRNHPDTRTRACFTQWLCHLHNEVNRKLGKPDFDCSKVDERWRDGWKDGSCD
# FGF22 binding: binders of recombinant human FGF22 by thermal shift; Q9HCT0; SYPRO orange fluorescence; percent of sucrose octasulfate shift, DMSO zero; calls only at 9.99 µM; hit rate 1.5% among 340,000; AID 651658;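 active means melting point raised past a set limit in the mean and every replicate; inconclusive means no clear call; three in four hits are not shown here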
# Target sequence (Q9HCT0 whole entry, looked up): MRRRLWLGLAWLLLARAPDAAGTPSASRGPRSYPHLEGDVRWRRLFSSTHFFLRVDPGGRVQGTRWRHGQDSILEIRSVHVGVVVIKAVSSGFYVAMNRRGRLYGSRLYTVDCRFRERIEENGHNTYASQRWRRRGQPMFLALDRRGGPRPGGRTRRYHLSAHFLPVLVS
# Ecoli rRNA inh OD600: further read-out of Ecoli rRNA inh, marked with its call; OD600 change, %; measured here: OD600 growth;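 optical density of the mix in the first replicate; 0 = DMSO median and -100 = no signal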
# Ecoli rRNA inh RFP: also measured in Ecoli rRNA inh; calls as there; RFP signal change, %; measured here: RFP humanized mutant strains;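 first replicate; 0 = DMSO median and -100 = no signal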
# Starred values were filed as active, the others as inactive; i = inactive; ? = inconclusive; · = not tested or not shown; & = joins results of further samples. An excerpt; the hit share may differ from the screen's.
SMILES,Beta apoptosis,RanGTP-Imp inh,Calb FLC,MLL AF4-AF9 inh,T cruzi inh,Ecoli rRNA inh,Ecoli rRNA inh OD600,Ecoli rRNA inh RFP,ALR H2O2 inh,FGF22 binding
Cc1occc(=O)c1OCc1c(Cl)cccc1Cl,-3,0.2,-16,-1.7,7,-6,-13,1.0,2,i
O=C(O)c1cc(-c2ccc(Br)s2)nc2ccccc12,0,18*,2,-4.0,-11,-29,-34,-8.9,-6,i
Cc1ccc(S(=O)(=O)Nc2c(C)n(C)n(-c3ccccc3)c2=O)cc1,4&-4,-0.3&-3.6,-18&-1,0.5,-5&-3,-5,11,2.6,1&0,·
COc1ccccc1NC(=O)c1nn(-c2ccc(F)c(F)c2)ccc1=O,-4,1.6,8,·,-13,·,·,·,-15,·
CCN(CC)S(=O)(=O)c1ccc(Cl)c(NC(=O)c2cc(Cl)cc(Cl)c2)c1,-5,1.0,-21,-1.0,-13,8,11,0.3,-3,i
CCC(CC)C(=O)c1c[nH]c(C(=O)NCCCN2CCOCC2)c1,-6,-2.1,-3,·,-8,·,·,·,5,·
CCc1ccc(CCC(=O)Nc2sc(C)c(C)c2C(=O)OC)o1,0,-0.2,3,8.1,21,-12,-4,-1.0,67,i
C=CCn1c(SCC(=O)Nc2cc(C)c(Cl)cc2OC)nnc1-c1ccco1,-1,·,12,·,-4,-1,0,0.2,-13,·
O=S(=O)(NCCc1ccccc1)c1ccc(F)cc1,-6,3.0,-11,-0.1,-12,-6,-7,0.5,2,i
COc1cccc(NS(=O)(=O)c2ccc3c(c2)CCN3C(C)=O)c1,25,2.4,-1,-21,21,10,8,2.1,5,i
Cc1ccc(C(=O)NCCn2c(N)c(C#N)c3nc4ccccc4nc32)cc1,-9,58*,10,·,-3,·,·,·,-20,·
Cc1ccc(C(=O)n2nc(-c3ccccc3)nc2NCc2ccco2)cc1,-6,-1.7,-9,1.6,8,14,9,0.5,2,i
Cc1c(NS(=O)(=O)c2cccc(C(=O)Nc3ccccc3)c2)c(=O)n(-c2ccccc2)n1C,0,·,·,-0.7,·,-1,1,0.7,·,i
CC(C)(C)C(=O)/C(C#N)=C/c1ccc(O)cc1,·,7.4,31,-0.1,-7,20,6,-9.6,44,i
CCOc1ccccc1NC(=O)NNC(=O)COc1cccc(C)c1C,-3,3.0,3,-0.2,13,-4,-10,1.2,-11,i
CCOc1ccc2[nH]c3c(=O)n(CCc4ccc(OC)cc4)cnc3c2c1,6,-0.7,5,-6.7,4,4,-2,-8.8,0,i
CC(C)COP(=O)(c1ccc(N(C)C)cc1)C(O)c1ccncc1 (stereo not drawn),-3,2.2,-7,·,-16,·,·,·,2,·
CCC(Sc1ccc2nnc(-c3cccnc3)n2n1)C(=O)OC (stereo not drawn),3,-3.8,19,-0.5,2,11,4,3.8,·,i
CCOc1ccc(NCCC#N)cc1,-2,1.2,-13,·,5,·,·,·,·,·
C=CCn1c(=O)c2c3c(sc2n2c(Nc4ccc(C(=O)OCC)cc4)nnc12)CCCC3,-1,4.7,-2,·,24,·,·,·,-2,·
COC(=O)c1sccc1NC(=O)Nc1ccc(Cl)c(Cl)c1,8,2.0,4,·,-12,·,·,·,-2,·
CN(C)c1ccc(/C=N/NC(=O)CCCO)cc1,1,-3.1,-8,-2.0,-5,6,10,3.2,96*,i
C=CCNC(=O)c1onc(CSc2cccc(Cl)c2)c1C(=O)O,3,1.3,12,0.2,-9,4,-15,6.8,74,i
CCc1ccc(NC(=O)CN(c2ccc(OC)cc2)S(=O)(=O)c2c(C)[nH]c(=O)[nH]c2=O)cc1,·,1.0,1,-4.5,-11,-11,-9,-1.8,?,i
CCOC(=O)CNC(=O)CSc1ncnc2c1cnn2-c1ccccc1,-9,-2.0,13,·,-6,·,·,·,10,·
CC(=O)Nc1cc(NC(C)=O)cc(C(=O)OCC(=O)N2CC(C)OC(C)C2)c1 (stereo not drawn),1,0.9,-17,·,-5,·,·,·,-6,·
Oc1ccc(/C=N/n2c(-c3ccccc3)n[nH]c2=S)cc1,7,10,2,-3.5,-4,15,1,4.1,17,i
COc1ccccc1N1CCN(C(=O)c2cc(-c3ccc(Cl)c(Cl)c3)on2)CC1,-3,1.3,3,·,·,·,·,·,-3,·
O=C(c1cccc(Br)c1)N1CCN(c2ccccn2)CC1,-2,-1.1,16,-0.5,·,2,10,2.9,-5,i
O=C(CCCN=C1NS(=O)(=O)c2ccccc21)OCC(=O)c1ccc(F)cc1,-5,7.9,4,-11,-7,1,0,-0.9,3,i
COc1ccc(/C=C/c2n[nH]c(=O)c(C#N)c2C)cc1,0,-0.2,4,6.1,6,-2,-1,-3.8,1,i
CCCN(C(=O)CSc1nc2c(cnn2-c2ccccc2)c(=O)[nH]1)C1CCS(=O)(=O)C1 (stereo not drawn),1,6.5,8,-5.4,4,9,11,2.6,-3,i
COc1ccccc1CNC(=O)C1CCN(S(=O)(=O)c2ccc3c(c2)OCCO3)CC1,-4,2.4,-6,-1.4,7,-2,-18,-0.4,-2,·
COc1cc(OC)cc(C(=O)N2CCC(C(=O)Nc3ccc4c(c3)OCCO4)CC2)c1,-4,8.4,-14,·,-14,·,·,·,-3,·
CCOc1ccccc1C(=O)NN1C(=O)C2CCCCC2C1=O (stereo not drawn),0,-2.2,-6,·,-4,·,·,·,-3,·
C/C(N)=C(\C#N)C(=O)NCCc1ccccn1,3,2.3,5,·,-6,·,·,·,4,·
COC(=O)CSc1nnc(-c2ccc(OC)c(OC)c2)o1,-3,2.5,15,-0.2,17,18,4,0.2,-1,·
O=C(Nc1cccnc1Cl)c1cc(-c2ccco2)on1,-9,5.1,8,·,-2,·,·,·,21,·
CCN1CNC(=S)N(c2cccc(C)c2)C1,·,4.9,-1,0.9,·,-2,11,0.0,-5,i
Cc1onc(-c2ccccc2)c1C(=O)NNC(=S)NC(=O)c1ccc2c(c1)OCO2,12,3.5,4,-6.4,-7,-40*,-31*,-9.4*,63,i
O=C1OC(/C(=C\Nc2ccc(F)cc2F)[N+](=O)[O-])c2ccccc21 (stereo not drawn),-22,2.4,-2,1.7,-16,9,12,3.6,97*,i
CCOc1ccc(S(=O)(=O)N(C)CC(=O)NC2CC2)cc1,-3,?,-2,-0.7,-6,12,14,0.6,-9,i
CCN(C(=O)CC(C)C)c1nnc(Cn2nnc3ccccc32)s1,10,3.8,-6,-0.6,17,-18,-16,-1.9,-1,·
O=C(COC(=O)C1CCN(c2ccc(C(F)(F)F)cn2)CC1)Nc1ccc(F)cc1[N+](=O)[O-],-2,3.7,3,-34,1,13,22,1.0,·,i
C=CCNC(=S)NNC(=O)C(CCCC)CC(C)O (stereo not drawn),-2,2.0,-15,·,-58,·,·,·,-3,·

# Quoted at random: two records from the list, in no set order.
SMILES,Beta apoptosis,RanGTP-Imp inh,Calb FLC,MLL AF4-AF9 inh,T cruzi inh,Ecoli rRNA inh,Ecoli rRNA inh OD600,Ecoli rRNA inh RFP,ALR H2O2 inh,FGF22 binding
C/C(N)=C(\C#N)C(=O)NCCc1ccccn1,3,2.3,5,·,-6,·,·,·,4,·
CCN1CNC(=S)N(c2cccc(C)c2)C1,·,4.9,-1,0.9,·,-2,11,0.0,-5,i

# (more compounds)
SMILES,Beta apoptosis,RanGTP-Imp inh,Calb FLC,MLL AF4-AF9 inh,T cruzi inh,Ecoli rRNA inh,Ecoli rRNA inh OD600,Ecoli rRNA inh RFP,ALR H2O2 inh,FGF22 binding
N#CCCN(CCC#N)C(=O)COc1ccc(Cl)cc1Cl,-1,-2.8,15,·,-3,·,·,·,-17,·
CC1CCCCC1NS(=O)(=O)c1ccc(S(=O)(=O)N2CCN(CCC#N)CC2)cc1 (stereo not drawn),2,-0.2,-3,0.8,10,-2,-9,3.5,-39,·
COCCn1c(N)c(N(Cc2ccccc2)C(=O)CSCC(=O)Nc2ccc(OC)cc2)c(=O)[nH]c1=O,-4,0.3,2,-0.3,-4,7,10,-0.4,-4,i
Cc1cccc(-n2nnc(C(=O)Nc3ccc(F)cc3)c2N)c1,0,4.0,23,·,-1,·,·,·,·,·
O=C(NCCCN1CCCC1=O)NC12CC3CC(CC(C3)C1)C2,-6,?,1,·,-4,·,·,·,-1,·
COc1ccc(C(=O)CSc2nnc(CNC(=O)c3ccc(OC)c(OC)c3)n2C)cc1,0,-1.1,6,·,·,·,·,·,5,·
CCn1cc(Cl)c(C(=O)NNC(=O)CCn2nc(C)c([N+](=O)[O-])c2C)n1,-8,-3.1,2,-3.1,3,0,6,-5.0,·,i
Cc1cc(F)c(F)c(C(=O)N2CCCCC2C)c1Cl (stereo not drawn),-2,-2.1,-7,-11,1,-3,0,-0.2,-9,i
Cc1cccc(NC(=O)CSc2nnc(-c3cc(C)n(-c4ccccc4)c3C)o2)c1C,-5,-2.0,9,·,6,·,·,·,-5,·
CCn1c2ccccc2c2cc(NC(=O)COC(=O)c3cccc(S(=O)(=O)NC)c3)ccc21,-1,0.8,30,1.3,-22,-7,-6,12,9,i
Cc1ccc(S(=O)(=O)N2[C@@H](c3ccc(F)cc3)C(C(=O)O)=C[C@H]2CC2CCCC2)cc1,-3,·,·,-1.4,·,-11,-22,-1.9,·,i
N#C/C(=C(/O)CN1CCCC1)c1nc(-c2ccccc2)cs1,-9,0.0,-1,-66,-4,4,-6,-1.2,12,i
CCc1ccc(-c2cc(C(=O)N/N=C/c3c[nH]c4ccccc34)[nH]n2)cc1,15,2.4,49,1.2,-7,-24,-36,17,1,i
N#CCSc1nc(-c2ccccc2)nc2ccc(F)cc12,-5,0.6,3,0.1,6,2,2,1.2,6,i
CCCN(CCC)CC(O)CN1C(=O)NC(C)(C)C1=O (stereo not drawn),4,-6.0,30,2.0,-14,1,2,3.0,-2,i
CCCCn1nc(C(=O)N(C)C2CCCCC2)c2ccccc2c1=O,0,·,·,-5.0,·,·,·,·,0,i
COC(=O)CNC(=O)c1ccc2c(c1)S(=O)(=O)c1ccccc1C2=O,-3,2.9,-6,·,-7,·,·,·,-19,·
CCOC(=O)c1c2n(c3ccc(O)cc13)CCC2,-4,0.9,11,·,5,·,·,·,7,·
COc1ccc(O)c(/C=N/n2c(-c3ccco3)csc2=Nc2cccnc2)c1,15,2.8,4,·,-13,·,·,·,6,·
COc1ccc(N2CCN(C(=O)COCc3cc(-c4ccc5c(c4)OCO5)on3)CC2)cc1,-7,0.0,-3,-3.3,-3,-11,-2,-7.9,30,i
C=C1CCC[C@]2(C)C[C@H]3OC(=O)C(CN[C@@H](C)c4ccccc4)[C@H]3CC12 (stereo partly drawn),15,-0.3,-9,1.7,19,-5,-17,5.0,-2,i
COCO/C=C(\NC(C)=O)c1ccccc1,-3,·,·,-3.3,·,3,7,2.5,-34,i
COc1ccc(CCNC(=O)Cc2ccc(NC3=NC4CS(=O)(=O)CC4S3)cc2)c(OC)c1 (stereo not drawn),-4,-1.7,-6,6.7,10,8,16,-8.5,-19,i
O=C(N/N=C/c1cc2c(cc1Br)OCO2)c1c[nH]c2ccccc12,-3,·,-7,·,62*,·,·,·,0,·
CC(=O)Nc1ccc2c(c1)nc(CCN1CCC(C)CC1)n2C,-2,-2.9,8,·,-3,·,·,·,5,·
Cc1ccc(CSCC(=O)Nc2ccccc2C(=O)O)cc1,4,-1.7,-5,-16,-16,-12,-1,0.1,-9,i
